RGS16-Gao: RGS16-Galphao interaction regulator (human) | AID 1441 | binding response (% of control), % at 10 µM | bead-based flow cytometry RGS16-Galphao binding, fluorescence; actives lie on both sides | 220,000 compounds, 0.38% hits | O15492+P09471;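 active = below 25% or above 175%, edge rows of some plates excepted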;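 also: Galphao activated by GDP with aluminum fluoride before binding; 100% = wells without compound and 0% = beads without RGS; some results beyond the cut were filed as inactive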
Target sequence (O15492 whole entry, looked up): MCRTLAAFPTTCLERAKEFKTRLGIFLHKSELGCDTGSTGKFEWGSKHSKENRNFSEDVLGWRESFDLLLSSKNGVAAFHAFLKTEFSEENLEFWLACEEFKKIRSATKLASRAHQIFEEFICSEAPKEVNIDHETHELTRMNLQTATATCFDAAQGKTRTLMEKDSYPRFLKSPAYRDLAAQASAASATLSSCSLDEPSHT
Target sequence (P09471 whole entry, looked up): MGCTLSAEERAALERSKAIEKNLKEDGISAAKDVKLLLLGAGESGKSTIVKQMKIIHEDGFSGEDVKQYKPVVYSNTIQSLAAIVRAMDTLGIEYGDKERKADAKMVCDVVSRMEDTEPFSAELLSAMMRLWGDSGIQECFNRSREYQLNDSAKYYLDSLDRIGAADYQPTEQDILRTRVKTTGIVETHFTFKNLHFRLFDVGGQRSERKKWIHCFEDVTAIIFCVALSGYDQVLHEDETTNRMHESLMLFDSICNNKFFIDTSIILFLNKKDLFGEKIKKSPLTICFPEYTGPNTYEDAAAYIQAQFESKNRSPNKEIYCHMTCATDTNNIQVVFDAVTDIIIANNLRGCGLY
HSV replic up: increases HSV replication in cells; HSV replication augmentation in cells, fold increase; maximum fold increase; 220,000 compounds, 0.005% hits;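 active = peak rise of 1.5-fold or more in the series; tested in PC3 cells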;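 also: first round at 10 µM; read as green reporter fluorescence; hits show the peak of a series up to 25 µM; 1 = signal of infected wells without compound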
GALR2 agonist: activates the human galanin receptor 2; GALR2-expressing cells, agonist activation read-out; 140,000 compounds, 0.48% hits; activation, %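 (tested at 5 µM)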;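 active = above mean plus 3 SD of all compounds, about 5% in these data, not always enough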;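 also: 0% = vehicle buffer wells and 100% = reference agonist at full effect; tested in CHO reporter cells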
Target sequence (O43603 whole entry, looked up): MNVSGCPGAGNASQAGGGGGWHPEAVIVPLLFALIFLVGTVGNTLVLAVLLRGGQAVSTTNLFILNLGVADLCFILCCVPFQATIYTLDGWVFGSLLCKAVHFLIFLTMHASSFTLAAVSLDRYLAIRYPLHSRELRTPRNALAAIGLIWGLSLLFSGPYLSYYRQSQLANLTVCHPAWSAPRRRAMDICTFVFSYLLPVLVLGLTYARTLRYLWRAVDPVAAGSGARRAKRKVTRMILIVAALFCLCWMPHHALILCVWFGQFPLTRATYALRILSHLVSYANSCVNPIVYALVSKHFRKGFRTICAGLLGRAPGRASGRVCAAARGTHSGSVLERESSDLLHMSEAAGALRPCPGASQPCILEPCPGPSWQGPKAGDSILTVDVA
PKD1 inh: blocks activity of human protein kinase D1; Q15139; PKD1 kinase fluorescence polarization assay; inhibition, %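 (about 10 µM by stock and volumes)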; 200,000 compounds, 0.056% hits; AID 797;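 active = inhibition of 50% or more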;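 also: controls were vehicle for no effect and a reference inhibitor for full effect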
Insulin prom inh: TRM-6 insulin promoter activity inhibition. TRM-6 cells (human fetal islet line), insulin promoter-eGFP reporter, imaging; reporter expression induced with tamoxifen. inhibition, % at 2 µM. 130,000 compounds, 0.9% hits;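 active = inhibition above the mean plus 3 SD, with well images judged a real hit on visual review, cut at about 60% in these data, passing the limit was not always enough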
Insulin prom inh cell count: further read-out of Insulin prom inh, marked with its call; normalized cell count, %; measured here: cell count, toxicity; reference of the scale not given here;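 cells exposed to compound for 48 h; stained nuclei by imaging scaled within each plate; lower means fewer cells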
HSV replic up primary fold: also measured in HSV replic up; calls as there; fold increase; compound at 10 µM; measured here: primary screen fold increase 10 uM; tested in PC3 cells;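 GFP signal in the first replicate; 1 = infected wells without compound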
Starred values were filed as active, the others as inactive; i = inactive; x = no result given.

SMILES	RGS16-Gao	HSV replic up	HSV replic up primary fold	GALR2 agonist	PKD1 inh	Insulin prom inh	Insulin prom inh cell count
O=C(Cn1ncc(Cl)c(Cl)c1=O)N1CCN(Cc2ccccc2)CC1	103	i	0.57	x	-4	i	9
CCOc1cc(CNn2cnnc2)ccc1OCC(=O)NC1CCCCC1	103	i	1.1	-0.8	6	27	82
CCC(C)N=C1Sc2nc3ccc(C)cc3cc2CN1CCOC (centres undefined)	105	i	0.9	x	-3	27	120
Nc1ccc(/C=C/c2ccc3ncccc3c2)cc1	102	i	0.85	x	x	x	x
CCCc1nn(C)c(C(=O)Nc2cccc(Cl)c2)c1Cl	46	i	1.1	-1.5	26	x	x
O=C(CCc1ccc(O)c(O)c1)NNC(=S)Nc1ccc(Br)cc1Cl	101	i	1	x	6	x	x
Oc1ccccc1-n1c(-c2ccccc2)ccc1-c1ccccc1	103	i	0.88	x	x	x	x
CC(OC(=O)c1oc2ccccc2c1CSC1CCCCC1)C(=O)NC(N)=O (centres undefined)	97	i	1	-0.6	-4	19	115
C#CCNC(=O)C1=C[C@H](c2cn(C(C)=O)c3ccccc23)C[C@H](OCc2ccc(CO)cc2)O1	98	i	0.83	x	6	x	x
CCC(C)C(NC(=O)c1ccccc1NC(=O)c1ccco1)C(=O)O (centres undefined)	108	i	0.96	-1.2	0	-37	72
Cc1ccc(-c2nc3ncccn3c2NC(=O)C2CC2)cc1	101	i	0.9	-1.7	0	-16	67
CCC(C)(C)n1nnnc1CN(Cc1cccs1)Cc1cc2cc(OC)ccc2[nH]c1=O	104	i	0.98	x	x	x	x
Cc1cccnc1NC(=O)C1c2ccccc2Oc2ccccc21	103	i	0.97	-2.0	-6	-90	70
COC(=O)c1cc(C)nc(Sc2ccccc2N)n1	60	i	1.1	x	x	x	x
CC(NCC(O)COC1CCC(C(C)(C)C)CC1)c1ccccc1 (centres undefined)	95	i	0.76	x	-3	-24	121
CCN(CC)CCN1C(=O)C(=O)/C(=C(/O)c2cnn(-c3ccccc3)c2C)C1c1cccnc1 (centres undefined)	117	i	1	-1.6	-18	67	131
COc1ccc(N2CCN(C(c3cccs3)C(C)NC(=O)c3ccco3)CC2)cc1 (centres undefined)	102	i	1.1	-0.4	1	-16	185
Cc1ccc(SCCC(=O)NCc2ccccn2)cc1	102	i	0.98	x	-1	-33	75
CCNCc1nc2cc(Cl)ccc2c(=O)[nH]1	75	i	0.91	x	2	0	78
O=C(O)CCC(=O)Nc1ccc(C(=O)OCC(=O)c2ccc(Cl)cc2Cl)cc1	118	i	0.86	x	-5	47	92

The last six records of the part above come first, to join the parts:
SMILES	RGS16-Gao	HSV replic up	HSV replic up primary fold	GALR2 agonist	PKD1 inh	Insulin prom inh	Insulin prom inh cell count
CC(NCC(O)COC1CCC(C(C)(C)C)CC1)c1ccccc1 (centres undefined)	95	i	0.76	x	-3	-24	121
CCN(CC)CCN1C(=O)C(=O)/C(=C(/O)c2cnn(-c3ccccc3)c2C)C1c1cccnc1 (centres undefined)	117	i	1	-1.6	-18	67	131
COc1ccc(N2CCN(C(c3cccs3)C(C)NC(=O)c3ccco3)CC2)cc1 (centres undefined)	102	i	1.1	-0.4	1	-16	185
Cc1ccc(SCCC(=O)NCc2ccccn2)cc1	102	i	0.98	x	-1	-33	75
CCNCc1nc2cc(Cl)ccc2c(=O)[nH]1	75	i	0.91	x	2	0	78
O=C(O)CCC(=O)Nc1ccc(C(=O)OCC(=O)c2ccc(Cl)cc2Cl)cc1	118	i	0.86	x	-5	47	92
O=C(NCc1ccccc1Cl)c1cnc2n(c1=O)CCS2	102	i	0.99	-0.9	2	x	x
CCOC(=O)C1=C(CC)Nc2ccccc2N=C1NC(=O)c1ccc(OC)c(S(=O)(=O)N2CCCCC2C)c1 (centres undefined)	102	i	0.73	x	0	x	x
O=C(NCCN1CCOCC1)c1cc(-c2ccc(Cl)cc2)on1	100	i	1.1	-3.8	-13	x	x
CC(C)(C)NC(=O)C(c1cccs1)N(Cc1ccc(F)cc1)C(=O)c1csnn1 (centres undefined)	120	i	1.1	x	-6	x	x
CC1CCCCC1NC(=O)c1ccc(S(=O)(=O)NNC(=O)c2ccncc2)cc1 (centres undefined)	93	i	1.1	x	x	x	x
CCN1CCN(c2ncc(C(=O)N3CCCc4ccccc43)c3ccccc23)CC1	117	i	0.94	-0.6	-3	x	x
COc1ccc(N2CCN(C(=O)COCC(=O)O)CC2)cc1	100	i	1	x	-6	-14	80
O=C(COc1c(Cl)cccc1Cl)NN1C(=O)CSC1=S	94	i	1.1	x	-1	x	x
C/C(=N\NC(=S)Nc1ccc(F)cc1)c1ccc2c(c1)OCCO2	109	i	0.89	-1.5	-5	-7	50
COc1ccc(NC(C)C(=O)N/N=C/c2cc(Br)ccc2OC)cc1 (centres undefined)	110	i	0.99	x	14	x	x
O=C(C1CCC1)N1CCc2cc(S(=O)(=O)N3CCc4ccccc4C3)ccc21	x	i	0.94	-0.7	-6	43	134
Cn1c(=O)c2c(nc(CN3CCN(C(=O)c4ccco4)CC3)n2Cc2ccccc2F)n(C)c1=O	104	i	0.94	-1.7	-6	x	x
CC(C)(C)c1ccc(NC(=O)N2CCCN(c3ccc([N+](=O)[O-])cn3)CC2)cc1	100	i	1.1	x	x	x	x
O=C(CCC(=O)N(c1ccccc1)C(C(=O)NC1CCCC1)c1ccncc1)Nc1cccnc1 (centres undefined)	107	i	1.1	-1.3	-11	50	104
COc1ccc(-c2nc3c(c(=O)n(C)c(=O)n3C)n2CC2CC(c3ccccc3)=NO2)cc1OC (centres undefined)	x	i	0.82	-3.9	-4	55	108
COc1ccc(NCC(=O)N/N=C/c2cc([N+](=O)[O-])ccc2N2CCCC2)cc1	108	i	0.92	x	1	-17	94
Cn1c(=O)c2c(ncn2CC(=O)OCC(=O)Nc2ccc(Cl)cc2)n(C)c1=O	54	i	0.77	-0.2	0	-8	89
CC(C)COC(=O)c1ccccc1N1C(=O)C2C3CCC(C3)C2C1=O (centres undefined)	108	i	1	-0.7	-8	-25	95
Nc1nonc1-n1nnc(C(=O)N/N=C/C2CC=CCC2)c1CSc1ccccc1 (centres undefined)	111	i	0.92	x	x	x	x
Clc1ccc(Sc2cnc3ccccc3n2)cc1	101	i	0.92	-1.2	-6	-11	93

Whole records, quoted from the list.
C/C(=N\NC(=S)Nc1ccc(F)cc1)c1ccc2c(c1)OCCO2 is listed with RGS16-Gao: 109; HSV replic up: i; HSV replic up primary fold: 0.89; GALR2 agonist: -1.5; PKD1 inh: -5; Insulin prom inh: -7; Insulin prom inh cell count: 50
Clc1ccc(Sc2cnc3ccccc3n2)cc1 is listed with RGS16-Gao: 101; HSV replic up: i; HSV replic up primary fold: 0.92; GALR2 agonist: -1.2; PKD1 inh: -6; Insulin prom inh: -11; Insulin prom inh cell count: 93

Other records follow.
SMILES	RGS16-Gao	HSV replic up	HSV replic up primary fold	GALR2 agonist	PKD1 inh	Insulin prom inh	Insulin prom inh cell count
CCOc1cc(/C=C2/SC(=S)NC2=O)ccc1OC(=O)c1ccco1	99	4.6*	3*	x	-5	x	x
COC(=O)c1ccc(CSc2cc(C)c3ccccc3n2)o1	99	i	0.98	x	-9	x	x
CCOc1ccc(CCNC(=O)c2cc3sccc3n2C)cc1OCC	-274	x	x	0.0	-7	-39	130
Cc1nc2ccccc2nc1CSc1nnc(N)s1	92	i	0.9	-1.0	-9	17	180
Cc1c(C(=O)N/N=C/c2ccccc2)[nH]c2ccc(Cl)cc12	58	i	0.71	-0.6	1	12	98
CCOC(=O)N/N=C\c1ccc([N+](=O)[O-])o1	96	i	0.83	-2.3	-4	-13	73
CC(c1ccccc1)n1c(SCC(=O)N2CC(=O)Nc3ccccc32)nc2ccccc2c1=O (centres undefined)	87	i	0.76	0.9	-6	x	x
COc1ccc(C(=O)N2CCN(Cc3ccccc3C)CC2)cc1OC	103	i	0.89	-1.0	4	-61	142
c1ccc(OCCOc2ccccc2-c2nnco2)cc1	129	i	0.96	-2.5	-7	6	79
O=C(NCc1ccco1)C1CCCN(S(=O)(=O)c2ccc(Br)cc2)C1 (centres undefined)	109	i	0.98	x	0	x	x
CCCc1ncc(C(O)c2cccc(OC)c2OC)n1C (centres undefined)	98	i	1.2	-1.1	2	0	113
CC(=O)NC(Cc1ccccc1)C(=O)OCC(=O)c1ccc(Br)cc1 (centres undefined)	109	i	0.89	-0.6	0	36	132
O=C(O)CN(Cc1ccco1)S(=O)(=O)c1ccc(F)cc1	144	i	0.81	-2.1	2	-11	57
Cn1nnc2cc(C(=O)N3CCSCC3)ccc21	95	i	0.92	-1.0	-2	13	81
O=C(OCc1ccc(Br)cc1)c1ccncc1	62	i	0.94	x	-5	-22	41
CC(C)Sc1nc(C(F)(F)F)cc(=O)n1-c1ccccc1	107	i	0.95	-1.4	-10	39	84
CCCNC1=C(N(C(C)=O)c2cccc(F)c2)C(=O)c2ccccc2C1=O	104	i	0.54	-0.2	-3	36	60
COn1c(SC(C)C)nc2ccccc2c1=O	101	i	0.88	-0.7	1	31	76
CCOc1cc(C2c3c(-c4ccccc4)n[nH]c3C(=O)N2c2ccc(C(=O)O)cc2)ccc1O (centres undefined)	103	i	0.85	x	1	0	123
Cc1cc(C)cc(NC(=S)NCc2ccc(S(N)(=O)=O)cc2)c1	110	i	0.88	x	-4	20	105
C=CCNC(=O)c1ccc(-c2nc(-c3ccccc3)cs2)cc1	112	i	0.78	-1.8	-6	-10	68
Cn1c(=O)c2c(nc(SCCN3CCCCC3)n2Cc2ccc(Cl)cc2)n(C)c1=O	107	i	0.83	-3.0	-5	14	109
Cc1nc2sc(C(c3ccc(Cl)cc3)N3CCN(C(=O)c4ccco4)CC3)c(O)n2n1 (centres undefined)	108	i	0.93	-1.4	-16	x	x
CC(C)(C)c1ccc(C(=O)OC/C(O)=C(\C#N)c2nc3ccccc3s2)cc1	109	i	1.1	-1.0	-3	x	x
CC(C)C(NC(=O)CN1C(=O)c2ccccc2S1(=O)=O)C(C)C	105	i	1.1	-1.7	-5	x	x
NC(=S)Cc1ccc(Cl)cc1Cl	95	i	0.98	x	x	x	x
Oc1ccccc1/C=N/Nc1ccccc1	116	i	1.1	-1.2	-2	38	116
c1ccc(-c2nc(NC3CC3)nc(-n3ccnc3)n2)cc1	100	i	0.94	-1.2	10	x	x
CC1Cc2ccccc2N1C(=O)CN1CCC(n2nnc3cc(C(F)(F)F)ccc32)CC1 (centres undefined)	103	i	0.91	-1.2	-5	x	x
CCOC(=O)c1c(NC(=O)CCNCc2ccco2)sc2c1CCC2	110	i	0.97	x	x	x	x
CCc1ccc2oc(C(=O)NCc3ccc(S(N)(=O)=O)cc3)c(C)c2c1	103	i	1.1	x	-2	0	98
CCC(C)NC(=O)c1ccccc1NC(=O)c1ccccc1N(C)S(C)(=O)=O (centres undefined)	108	i	0.96	-2.8	5	-58	103
CC(C)CCNC(=O)c1sc2ccc(S(=O)(=O)N3CCCCC3)cc2c1N	100	i	0.87	-0.7	-9	x	x
Cc1ccc(N(CC(=O)Nc2ccccc2-c2ccccc2)S(=O)(=O)c2ccccc2)cc1	102	i	1	-1.4	-6	-8	36
O=C1C(c2cc(=O)c3ccccc3[nH]2)=C(O)c2ccccc21	106	i	0.85	-0.6	0	18	111
NC(=O)[C@H]1CC2(CC(c3cccc(NC(=O)CC(c4ccccc4)c4ccccc4)c3)=NO2)CN1C(=O)C(c1ccccc1)c1ccccc1 (some centres undefined)	92	i	0.78	x	x	x	x
Cc1ccc2c(CN3CCN(CCO)CC3)cc(=O)oc2c1	101	i	1	-1.2	-27	11	90
C=CCN1C(=O)SC(Cc2cccc(OC)c2O)C1=O (centres undefined)	99	i	0.97	x	-1	x	x
CCCCn1c(=NC(=O)c2cccnc2)c(C#N)cc2c(=O)n3cccc(C)c3nc21	73	x	x	3.5	19	6	119
CC(C)(C)NC(=O)COC(=O)c1ccc(Cl)c(S(N)(=O)=O)c1	114	i	1	x	-5	-100	38
